High-throughput results (PubChem)
RE007 growth inh: less growth of the S. pombe RE007 Vpr strain. Potency, µM (doses to about 92.2 µM), for the others: at the highest dose activity change, negative = less growth. S. pombe RE007 Vpr strain, BacTiter-Glo ATP luminescence, 24 h; control for the full effect not named in the record. AID 651644. hit rate 0.21% among 360,000; active = well fitted falling curve with a large enough effect; inconclusive = small, poorly fitted or top-dose-only effect; inactive = no such curve, though single readings can be large or run the other way;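 note: nearly all actives have a fitted effect of over 50% in size; the assay follows cell death caused by Vpr and the record does not say whether a fall means rescue or toxicity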
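Fission yeast strain RE007, carrying one chromosomally integrated HIV-1 vpr copy, was seeded at OD 0.01 in PMG+AL medium with 23 nL pinned compound. After 24 h at 30 °C and 99% humidity, viability was read by BacTiter-Glo luminescence.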
StopGo reporter: FMDV 2A StopGo reporter, luciferase signal; human cells with a luciferase reporter of 2A StopGo recoding; control for the full effect not named in the record; Potency, µM (top dose mostly 57.9 µM), without a hit: top-dose signal change, negative = less light; hit rate 1.2% among 410,000; active = well fitted falling curve with a large enough effect; inconclusive = small, poorly fitted or top-dose-only effect; inactive = no such curve, though single readings can be large or run the other way; tested in HEK293T cells; note: nearly all actives have a fitted effect of over 45% in size; luciferase light after 4 h
* = called active by the depositor; ? = inconclusive; [ ] = dose if it differs, or a comment. % is set by controls: 0 for no effect and ±100 for the full control effect; potency is the fitted concentration of half-maximal effect. Not all compounds are listed; the hit share may differ from the screen's.

Start of the data: the first 6 compounds as a preview:
SMILES	RE007 growth inh	StopGo reporter
CC(C)N(C(=O)Cn1cc(S(=O)(=O)CC(=O)NCCc2ccccc2)c2ccccc21)C(C)C	0.8%	-20.5%
CCCCc1c(-c2ccc(F)cc2)ncn1CCc1ccccc1OC	-12.5%	25.1µM*
Cc1cccc(C)c1-n1nnnc1C1(C)CCC(=O)N1CCCN1CCOCC1 (stereo not drawn)	6.7%	-20.3%
Cc1ccc(S(=O)(=O)N[C@H]2CCC[C@@H]2O)cc1	-4.9%	-12.4%
COCCNC(=O)C1(C)CCCN(C(=O)c2cc(F)ccc2C)C1 (stereo not drawn)	14.4%	-4.6%
CCCS(=O)(=O)NC(=O)C1(C)CCCN(C(=O)c2ccc3c(c2)OCO3)C1 (stereo not drawn)	15.5%	-19.2%

All compounds of this part, from the start:
SMILES	RE007 growth inh	StopGo reporter
CC(C)N(C(=O)Cn1cc(S(=O)(=O)CC(=O)NCCc2ccccc2)c2ccccc21)C(C)C	0.8%	-20.5%
CCCCc1c(-c2ccc(F)cc2)ncn1CCc1ccccc1OC	-12.5%	25.1µM*
Cc1cccc(C)c1-n1nnnc1C1(C)CCC(=O)N1CCCN1CCOCC1 (stereo not drawn)	6.7%	-20.3%
Cc1ccc(S(=O)(=O)N[C@H]2CCC[C@@H]2O)cc1	-4.9%	-12.4%
COCCNC(=O)C1(C)CCCN(C(=O)c2cc(F)ccc2C)C1 (stereo not drawn)	14.4%	-4.6%
CCCS(=O)(=O)NC(=O)C1(C)CCCN(C(=O)c2ccc3c(c2)OCO3)C1 (stereo not drawn)	15.5%	-19.2%
C=CCOC(=O)COc1ccc2c3c(c(=O)oc2c1)CCCC3	?	3.8%
O=C(CCN1CCCCO1)NC1CCCc2c1cnn2-c1ccc(F)cc1F (stereo not drawn)	10.4%	0.0%
Cc1cccnc1C(NC(=O)C1CCN(Cc2ccc(Oc3ccccc3)cc2)CC1)c1ccccc1 (stereo not drawn)	-17.0%	-17.5%
C1=C[C@H]2CCCN3CC[C@@H]([C@@H]2[C@]32CO2)[C@H]1CCOCc1ccccc1	0.4%	-20.8%
O=C(C[C@H]1C=C[C@H](NC(=O)c2ccccn2)[C@@H](CO)O1)NCc1cc(F)cc(F)c1	8.5%	-15.8%
O=C(NCc1ccccc1)c1ccc(NC(=O)C2CC2)cc1	-12.9%	31.9%[activator]
COc1ccc(CNC(=O)COC(=O)c2c(NC(C)=O)sc(C)c2C)cc1OC	8.3%	?
CCOC(=O)CN1C(=O)N[C@@H](c2cccs2)C(C(C)=O)=C1C	-14.2%	1.3%
C[C@@H](NC(=O)[C@@H]1CCCN1C(=O)OC(C)(C)C)c1ccccc1	10.1%	-9.9%
CCOC(=O)[C@]12CCC=C1N(Cc1ccc3c(c1)OCO3)C(=O)[C@H](CC(=O)NCc1cccs1)C2	-19.9%	-2.1%
COc1ccc(S(=O)(=O)N2CCCCC2c2cc(C(=O)NCc3cccnc3)no2)cc1 (stereo not drawn)	-1.9%	-3.1%
CC(C)C#Cc1cnc2c(c1)C(=O)N([C@@H](C)CO)C[C@@H](C)[C@H](CN(C)Cc1cccc(F)c1)O2	-2.3%	-18.5%
CC1CCC(N(C)C(=O)CN2C(=O)NC(c3ccccc3)(c3ccccc3)C2=O)CC1 (stereo not drawn)	15.0%	-21.0%
CC1(C(=O)O)CCCN(C(=O)c2cc3ccccc3s2)C1 (stereo not drawn)	5.7%	-16.8%
COCCCNc1ccn2nc(-c3ccccc3)cc2n1	-16.6%[18.4 µM]	-42.0%
COc1cc(C=O)ccc1OCc1cn(CC(=O)c2ccc(O)cc2)nn1	12.6%	-10.4%
Cc1ccc([C@H]2N[C@]3(CCCN(Cc4ccc(Cl)cc4)C3=O)[C@H]3C(=O)N(C)C(=O)[C@@H]23)cc1	17.8%	-15.7%
CCn1cc(/C=C(\NC(=O)c2ccccc2F)C(=O)N2CCN(C)CC2)c2ccccc21	-9.9%	0.0%
O=C1NC[C@H](CCCCN2CCN(Cc3ccccc3)C(=O)C2=O)N(Cc2ccccc2)C1=O	-16.1%	-21.0%
COc1ccc(C(C#N)CC(=O)c2ccc3c(c2)OCO3)cc1OC (stereo not drawn)	-11.6%	-23.9%
CCc1ccc([C@@H]2C[C@H]3[C@@H](CN2S(=O)(=O)c2ccc(C)cc2)C(=O)C[C@@H](c2ccccc2F)N3S(=O)(=O)c2ccc(C)cc2)cc1	4.0%	-9.7%
COc1cccc(C(O)c2nc(/C=C/c3ccccc3)cs2)c1 (stereo not drawn)	1.9%	-13.6%
CC(=O)C1=CCC(c2cccs2)N(S(=O)(=O)c2ccc(C)cc2)C1 (stereo not drawn)	-0.6%	-13.0%
CCN(CC)C(=O)C1=C(C)N(CCCN2CCCC2=O)C(=O)C(CC(=O)NC2CCCCC2)C1 (stereo not drawn)	9.2%	0.0%
O=C1C=C(c2ccc3c(c2)OCO3)CCC1	4.9%	17.0%
Cc1cn([C@H]2C[C@H](O)[C@@H](CCC(=O)NCCc3cccs3)O2)c(=O)[nH]c1=O	1.2%	24.5%
C[C@@H]1CN([C@@H](C)CO)C(=O)c2cc(/C=C/c3ccccc3)cnc2O[C@@H]1CN(C)S(=O)(=O)c1ccc(F)cc1	7.2%	-18.3%
COc1cccc(C=C(C(C)=O)C(=O)c2ccccc2)c1	-15.5%	20µM*
COc1ccc(S(=O)(=O)N2CCC[C@H]2C(=O)N2CCC[C@H]2C(=O)NCc2ccccn2)cc1C	2.3%	-13.1%
CCCCC(=O)N(C)c1c(C)nc2ccc(C(=O)NCc3ccccc3OC)cn12	-7.6%	-12.1%
COc1cc(NC(=O)Nc2nnc([C@@H]3C[C@H](O)[C@@H](CO)O3)s2)cc(OC)c1OC	2.3%[18.4 µM]	-11.5%
C#CCN(C[C@H]1[C@H](OC(=O)Nc2c(C)noc2C)[C@H](OC(=O)Nc2c(C)noc2C)C[C@@H](C(=O)OC)[C@H]1C(=O)OC)S(=O)(=O)c1ccc(C)cc1	-1.9%	31.6µM*
O=S(=O)(NCCS(=O)(=O)N1CCN(c2ccc(F)cc2)CC1)c1ccc(F)cc1	10.0%	-13.6%
COc1ccc(CNC(=O)/C=C/[C@H]2O[C@@H](n3cnc4c(NC(=O)c5ccccc5)ncnc43)[C@H](O)[C@@H]2O)cc1	4.2%	-12.3%
CC1=C2CCCC[C@@]23C2C(=O)N(C)C(=O)[C@@H]2ON3OC1 (stereo partly drawn)	?	-8.7%
C#CCN(C[C@@H]1[C@@H](OC(=O)NCc2ccco2)[C@@H](OC(=O)NCc2ccco2)Cn2c(=O)ccc(=O)n21)S(=O)(=O)c1ccc(C)cc1	2.5%	6.31µM*
Cc1noc(C)c1S(=O)(=O)N1CCCCC1c1cc(C(=O)Nc2cccc3c2CCCC3)no1 (stereo not drawn)	6.1%	-11.2%
Cc1ccc(Cc2c(-c3ccco3)nc3c(C)cc(Br)cn23)cc1	-23.5%	-28.8%
Cc1ccc(OCc2nc3ccccc3n2C(C(=O)Nc2c(C)cccc2C)C2CC2)cc1 (stereo not drawn)	5.9%	-23.7%
CO[C@@H]1CN(C)C(=O)c2cc(NC(=O)Nc3ccc(Cl)cc3)ccc2OC[C@H](C)NC[C@H]1C	-13.2%	-5.6%
Cc1ccsc1C(=O)N1CCC1(C)C(=O)NCc1cccc2ccccc12 (stereo not drawn)	-11.4%	0.0%
COc1cccc(C(=O)NN2CCOCC2)c1	11.8%	-13.0%
CCOC(=O)[C@@H](C)N(C(=O)OC(C)(C)C)S(=O)(=O)N(Cc1ccccc1)[C@H](C(=O)OC)C(C)C	-2.4%	-29.6%
O=C(NCCc1ccccc1)[C@@H]1CC=C[C@@H]2CCN(Cc3ccc(Cl)c(Cl)c3)C(=O)[C@@H]21	14.9%	-28.6%
OC[C@@H]1CN(Cc2cccs2)C[C@H](n2cnc3c(NCc4ccc(F)cc4)ncnc32)O1	-2.7%	-22.9%
CCc1nc2c(OCc3cc(Cl)cc(Cl)c3)cccn2c1N(C)C(=O)c1ccccc1F	?	0.0%
Cc1ccc2nc3n(c(=O)c2c1)-c1cc2ccccc2cc1C(=O)NC3Cc1ccc(O)cc1 (stereo not drawn)	1.0%	?
Cc1cccc(CN2CCC(n3nccc3NC(=O)CCCc3ccccc3)CC2)c1	-1.2%	?
COc1ccccc1S(=O)(=O)N(C)C[C@H]1OCc2cn(nn2)CCCC(=O)N([C@H](C)CO)C[C@@H]1C	0.0%	-16.3%
COc1cccc(C(=O)N2C(C(C)C)COc3cc(Br)ccc3S2(=O)=O)c1 (stereo not drawn)	-6.4%	?
CCc1ccc2c(c1)Sc1ccccc1CC2N1CCN(C)CC1 (stereo not drawn)	35.5%	-23.9%
CCCCOCCCNC(=O)C[C@@H]1C[C@@]2(C(=O)OCC)CCCC=C2N(Cc2ccc3c(c2)OCO3)C1=O	3.5%	-6.8%
COc1cccc(NC(=O)C2(C)CCN2C(=O)CC2CCCC2)c1 (stereo not drawn)	-1.1%[18.4 µM]	-13.6%
N#Cc1ccc(Nc2nc(-c3ccccc3)c(C(=O)c3ccccc3)s2)cc1	10.2%	?
(more compounds)
SMILES	RE007 growth inh	StopGo reporter
C[C@H]1CN[C@H](CCO)/C1=C\c1ccccc1	-28.7%	-22.6%
OC(c1ccccc1)(c1nc(-c2ccc(F)c(Cl)c2)cs1)C(F)(F)F (stereo not drawn)	?	-3.4%
C[C@@H](c1ccccc1)N1C[C@@H](COCc2ccccc2)Oc2cc(N3CC[C@H](O)C3)ccc2S1(=O)=O	-5.7%	2.0%
CCOC(=O)C1CCCN(C(=O)c2ccc(Cl)c(S(=O)(=O)N3CCc4ccccc43)c2)C1 (stereo not drawn)	0.4%	-23.5%
CCCCNC(=O)C[C@@H]1C[C@@]2(C(=O)OCC)CCCC=C2N(CCC2=CCCCC2)C1=O	0.0%	52.9%[activator]
C=CCOc1cccc(C2C(C(=O)c3ccc(C)o3)=C(O)C(=O)N2CCCn2ccnc2)c1 (stereo not drawn)	8.9%	14.2%
COc1ccc(NS(=O)(=O)c2cccc(C(=O)NCC(c3ccc(OC)cc3)N3CCCCC3)c2)cc1 (stereo not drawn)	-10.2%	-15.8%
CC1(C(=O)NS(=O)(=O)Cc2ccccc2)CCN1C(=O)Cc1ccccc1Cl (stereo not drawn)	2.5%[18.4 µM]	-20.8%
NC(Cc1ccccc1)c1csc(Nc2ccc(C(=O)c3ccccc3)cc2)n1 (stereo not drawn)	-9.5%	?
O=S1(=O)C[C@H](N2CCC[C@@H]2CO)[C@@H](COCc2ccccc2)N1	3.8%	-4.5%
CC1Oc2cc3oc4c(O)c5c(cc4c(=O)c3c(O)c2C1(C)C)C=CC(C)(C)O5 (stereo not drawn)	-22.6%	-5.6%
Cc1noc(C)c1NC(=O)N(C)C[C@@H]1Oc2cc(Br)ccc2S(=O)(=O)N([C@H](C)CO)C[C@@H]1C	3.2%	1.1%

Single records (already shown).
Record of Cc1cn([C@H]2C[C@H](O)[C@@H](CCC(=O)NCCc3cccs3)O2)c(=O)[nH]c1=O = RE007 growth inh = 1.2%; StopGo reporter = 24.5%
Record of CCCS(=O)(=O)NC(=O)C1(C)CCCN(C(=O)c2ccc3c(c2)OCO3)C1 (stereo not drawn) = RE007 growth inh = 15.5%; StopGo reporter = -19.2%

New compounds follow:
SMILES	RE007 growth inh	StopGo reporter
CCCCC1(CC(=O)OCC)SCCN1C(N)=O (stereo not drawn)	1.4%	-16.6%
CN(Cc1ccccc1)C(=O)c1cccc(NC(=O)Cc2ccc(NC(=O)C3CCCN(C(=O)C4CC4)C3)cc2)c1 (stereo not drawn)	5.0%	?
COc1ccccc1CNc1nc(NCc2ccc(C(C)C)cc2)c2sccc2n1	-9.1%	?
CCOC(=O)CCNC(=O)N1CCC(CCOc2ccccc2)(C(=O)OCC)CC1	6.6%	-7.4%
